# High-throughput results deposited in PubChem BioAssay by several laboratories.
# GALR2 ag: GALR2 receptor agonists, primary screen, cell-based; Galanin receptor type 2 (Homo sapiens), O43603; GALR2-expressing cells, agonist activation read-out; activation, %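 (tested at 5 µM)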; 140,000 tested, 0.48% active; AID 803, 2007;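 active = above mean plus 3 SD of all compounds, about 5% in these data, not always enough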;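 note: 0% = vehicle buffer wells and 100% = reference agonist at full effect; tested in CHO reporter cells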
# Target sequence (O43603 whole entry, looked up): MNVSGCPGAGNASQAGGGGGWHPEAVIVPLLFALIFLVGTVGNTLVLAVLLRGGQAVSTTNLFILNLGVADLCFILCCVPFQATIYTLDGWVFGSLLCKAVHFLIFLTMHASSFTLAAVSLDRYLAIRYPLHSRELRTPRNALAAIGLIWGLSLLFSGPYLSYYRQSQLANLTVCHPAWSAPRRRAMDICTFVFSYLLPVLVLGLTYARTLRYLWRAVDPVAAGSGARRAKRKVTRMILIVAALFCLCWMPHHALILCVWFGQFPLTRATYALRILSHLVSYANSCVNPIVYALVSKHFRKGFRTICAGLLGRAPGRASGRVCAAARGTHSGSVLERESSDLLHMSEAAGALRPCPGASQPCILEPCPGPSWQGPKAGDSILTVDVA
# RGS16-Gao: modulators of RGS16 binding to Galphao, primary screen, biochemical, human proteins, multiplexed bead flow cytometry. Regulator of G-protein signaling 16 (Homo sapiens) + Guanine nucleotide-binding protein …. bead-based flow cytometry RGS16-Galphao binding, fluorescence; actives lie on both sides. binding response (% of control), % at 10 µM. 220,000 tested, 0.38% active. AID 1441, 2008;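 active = below 25% or above 175%, edge rows of some plates excepted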;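 note: Galphao activated by GDP with aluminum fluoride before binding; 100% = wells without compound and 0% = beads without RGS; some results beyond the cut were filed as inactive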
# Target sequence (O15492 whole entry, looked up): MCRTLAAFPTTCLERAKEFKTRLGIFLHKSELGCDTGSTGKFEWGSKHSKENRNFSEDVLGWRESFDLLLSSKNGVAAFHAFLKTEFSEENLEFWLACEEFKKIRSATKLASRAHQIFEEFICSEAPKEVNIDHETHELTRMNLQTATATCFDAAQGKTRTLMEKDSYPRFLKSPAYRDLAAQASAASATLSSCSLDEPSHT
# Target sequence (P09471 whole entry, looked up): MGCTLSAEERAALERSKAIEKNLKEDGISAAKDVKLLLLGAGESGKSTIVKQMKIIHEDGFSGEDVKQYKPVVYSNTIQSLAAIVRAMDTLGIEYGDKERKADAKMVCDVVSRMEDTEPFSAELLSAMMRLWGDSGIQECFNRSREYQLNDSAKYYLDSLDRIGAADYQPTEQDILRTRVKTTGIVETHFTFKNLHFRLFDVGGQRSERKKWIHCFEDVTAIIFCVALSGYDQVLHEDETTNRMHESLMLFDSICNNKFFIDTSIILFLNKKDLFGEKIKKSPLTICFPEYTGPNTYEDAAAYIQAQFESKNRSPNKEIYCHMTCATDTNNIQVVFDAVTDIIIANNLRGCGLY
# PKD1 kinase inh: inhibitors of human PKD1 kinase, biochemical, fluorescence polarization; Serine/threonine-protein kinase D1 (Homo sapiens), Q15139; PKD1 kinase fluorescence polarization assay; inhibition, %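 (about 10 µM by stock and volumes)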; 200,000 tested, 0.056% active; AID 797, 2007;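 active = inhibition of 50% or more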;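 note: controls were vehicle for no effect and a reference inhibitor for full effect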
# HSV augment: enhancers of HSV replication in host cells, fold increase, host cell viability; HSV replication augmentation in cells; maximum fold increase; 220,000 tested, 0.005% active; AID 1956, 2009;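 active = peak rise of 1.5-fold or more in the series; tested in PC3 cells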;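 note: first round at 10 µM; read as green reporter fluorescence; hits show the peak of a series up to 25 µM; 1 = signal of infected wells without compound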
# INS promoter inh: inhibitors of insulin promoter-driven GFP, primary screen, imaging, TRM-6 cells (human fetal islet line), eGFP reporter, cell count | reporter expression induced with tamoxifen | 130,000 tested, 0.9% active | AID 1273, 2008 | inhibition, % at 2 µM;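 active = inhibition above the mean plus 3 SD, with well images judged a real hit on visual review, cut at about 60% in these data, passing the limit was not always enough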
# INS promoter inh cell count: also measured in INS promoter inh; calls as there; normalized cell count, %; measured here: cell count, toxicity; reference of the scale not given here;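 cells exposed to compound for 48 h; stained nuclei by imaging scaled within each plate; lower means fewer cells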
# HSV augment primary fold: further read-out of HSV augment, marked with its call; fold increase; compound at 10 µM; measured here: primary screen fold increase 10 uM; tested in PC3 cells;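 GFP signal in the first replicate; 1 = infected wells without compound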
# Numbers without * were called inactive; i = inactive; x = no result given.
SMILES,GALR2 ag,RGS16-Gao,PKD1 kinase inh,HSV augment,HSV augment primary fold,INS promoter inh,INS promoter inh cell count
CCS(=O)(=O)Nc1c(C(=O)OC)[nH]c2ccccc12,-1.8,68,-4,i,0.91,33,52
CCOc1ccc(Cn2nnc(C(=O)NCc3ccc(OC)cc3)c2N)cc1,-1.9,101,-1,i,1.2,x,x
Cn1c(-c2ccccc2)cccc1=O,-2.9,103,3,i,0.92,x,x
CCOC(=O)N1CCC(NC(=O)CCS(=O)(=O)c2ccc3c(c2)CCN3C(=O)CC)CC1,0.1,100,2,i,0.89,-58,103
COc1cc(C)c(Cc2cnc(N)nc2N)cc1OC,x,96,x,i,0.87,x,x
COCC(=O)n1nc(-c2ccc(C)cc2)nc1NCc1ccc(F)cc1,x,103,0,i,0.93,x,x
COc1cc(CN2CCN(C(C)C)C(CCO)C2)ccc1OCc1ccccc1 (centres undefined),x,102,3,i,0.95,x,x
Cc1cccc(N=C2NC(=O)/C(=C/c3cccnc3)S2)c1,x,102,x,i,0.98,x,x
Cc1ccc(NC(=O)CSc2nnc3ccccn23)cc1,x,97,-8,i,0.91,x,x
CCOc1ccc(C(=O)NC(=S)Nc2ccccn2)cc1[N+](=O)[O-],-0.4,98,-8,i,0.98,-42,38
O=C(c1ccc(Cl)c(S(=O)(=O)N2CCOCC2)c1)N1CCCCC1,x,107,-8,i,1.1,x,x
COCC(C)N=Cc1c(O)[nH]c2ccccc12 (centres undefined),-0.3,98,-6,i,1,-4,84
Cc1ccc(OCCC(=O)OCC(=O)N2c3ccccc3CC2C)cc1 (centres undefined),-1.5,89,3,i,1,x,x
O=C(/C=C/C(=O)N1CCc2ccccc2C1)N1CCc2ccccc2C1,x,99,x,i,0.82,x,x
O=C1CC(C(=O)Nc2cccc(Cl)c2)n2ncnc2N1 (centres undefined),x,124,-4,i,1,58,63
CCn1c(CCNC(=O)c2cccs2)nnc1SCC(=O)Nc1ccc(Cl)cc1,-2.3,99,0,i,0.93,-400,109
O=C(NCCc1nnc2ccc(NCC3CCCO3)nn12)c1ccccc1 (centres undefined),x,99,-6,i,0.96,-41,128
CCOC(=O)c1ccc(N2C(=O)CC(C(=O)OC)=C2C)cc1,-0.5,103,-3,i,0.86,12,124
CC(C)c1cccc(C(C)C)c1NC(=S)Nc1cccc(Cl)c1,x,100,x,i,0.99,x,x
O=C(Nc1cccc2ccccc12)C1CCN(C(=O)Cc2ccccc2)CC1,-0.8,97,2,i,0.92,12,96
CCC1=C(OC(=O)N(CC)CC)N2C(=O)OC(=NCCOC)[C@]2(Cc2ccccc2)[C@H]2C1=CC[C@H]1C(=O)N(C)C(=O)[C@H]12,x,101,x,i,0.81,x,x
COc1ccc(OC)c(NC(=O)C2CCN(C(=O)c3cccs3)CC2)c1,x,108,1,i,1,22,130
COc1cccc(CNS(=O)(=O)c2ccc(S(=O)(=O)N3CCCC3)cc2)c1,x,97,-2,i,0.94,13,93
Cc1cc(C(F)F)nn1CC(=O)N1CCSCC1,-1.8,40,1,i,1.2,-66,64
CC(C)(C)C(=O)OCCNc1nc(-c2ccccc2)nc2ccccc12,0.1,100,-4,i,0.82,15,165
O=C(Nc1cc([N+](=O)[O-])ccc1N1CCCC1)c1ccco1,x,102,-9,i,0.96,-65,68
CCOc1ccccc1N(CC(=O)Nc1cccnc1)S(=O)(=O)c1ccc(C)cc1,x,96,-7,i,0.99,13,120
CC(C)NS(=O)(=O)c1ccc(OCC(=O)N2CCCC2)c(Cl)c1,5.4,105,-2,i,1,43,141
Cc1ccnc(NC(=O)c2ccc(COc3ccc(Cl)cc3)o2)c1,-1.4,99,-10,x,x,-13,55
Cc1oc(-c2ccccc2F)nc1CN1CCC(C(=O)NC2CCCc3ccccc32)CC1 (centres undefined),-1.8,108,-11,i,0.92,86*,50*

# 7 entries from above, with two lines to a compound.
# Value order – GALR2 ag	RGS16-Gao	PKD1 kinase inh	HSV augment	HSV augment primary fold	INS promoter inh	INS promoter inh cell count
> COCC(C)N=Cc1c(O)[nH]c2ccccc12 (centres undefined)
→ -0.3	98	-6	i	1	-4	84
> Cc1ccc(OCCC(=O)OCC(=O)N2c3ccccc3CC2C)cc1 (centres undefined)
→ -1.5	89	3	i	1	x	x
> O=C(/C=C/C(=O)N1CCc2ccccc2C1)N1CCc2ccccc2C1
→ x	99	x	i	0.82	x	x
> O=C1CC(C(=O)Nc2cccc(Cl)c2)n2ncnc2N1 (centres undefined)
→ x	124	-4	i	1	58	63
> CCn1c(CCNC(=O)c2cccs2)nnc1SCC(=O)Nc1ccc(Cl)cc1
→ -2.3	99	0	i	0.93	-400	109
> O=C(NCCc1nnc2ccc(NCC3CCCO3)nn12)c1ccccc1 (centres undefined)
→ x	99	-6	i	0.96	-41	128
> CCOC(=O)c1ccc(N2C(=O)CC(C(=O)OC)=C2C)cc1
→ -0.5	103	-3	i	0.86	12	124

# (list continues)
SMILES,GALR2 ag,RGS16-Gao,PKD1 kinase inh,HSV augment,HSV augment primary fold,INS promoter inh,INS promoter inh cell count
CCOc1ccc(CCNC(=O)COC(=O)c2cccc(OC)c2O)cc1OCC,x,98,4,i,1,x,x
O=C1OCCN1CCN(CN1C(=O)CCC1=O)CN1C(=O)CCC1=O,-0.6,101,-13,i,0.97,x,x
CCOc1ccccc1N1CCN(C(=O)Nc2ccc(F)c(Cl)c2)CC1,-1.5,103,-6,i,0.76,-10,141
Cc1nc(Nc2nc(CSc3nc4ccccc4[nH]3)cc(=O)[nH]2)nc2ccccc12,1.4,99,0,i,0.75,5,86
Cc1cc(Cl)c(OCCCCN2CCOCC2)c(Br)c1,-0.6,101,-3,i,0.89,-14,131
O=C(O)CCC(=O)N1CC=C(c2ccccc2)CC1,-2.5,97,-3,i,1.1,20,110
CC(=O)N1N=C(c2cccs2)CC1c1cc2cc(C)ccc2nc1Cl (centres undefined),x,97,x,i,0.92,x,x
Cc1nc(Nc2ccc(C(=O)O)cc2)nc(Nc2ccc(C(=O)O)cc2)c1[N+](=O)[O-],x,102,12,i,0.91,-44,91
CC(=O)Nc1cccc(NC(=O)CSc2nc(C)c(C)c(C)c2C#N)c1,-1.8,110,-5,i,0.8,-36,110
COc1cc(S(=O)(=O)N(Cc2cccnc2)Cc2cccc(OC)c2OC)ccc1-n1cnnn1,x,97,x,i,1,x,x
Cc1ccc(C)c(NC(=O)CSc2c(C)n[nH]c2C)c1,x,97,4,i,1.1,11,57
O=C(NNC(=O)c1ccccc1Br)c1ccc(Cl)cc1,-1.9,102,-4,i,0.97,x,x
O=C(COc1ccccc1)Nc1cccc(-c2nc3ccccc3[nH]2)c1,-1.0,100,2,i,0.86,46,128
Cc1onc(-c2ccccc2)c1C(=O)Nc1cccc(C#N)c1,-1.1,101,-4,i,0.85,x,x
Cc1onc(-c2ccccc2Cl)c1C(=O)Nc1ccc(S(=O)(=O)NCC2CCCO2)cc1 (centres undefined),-2.5,101,-12,i,0.87,-9,39
CCCC(=O)Nc1cccc(NC(=O)c2ccccc2Br)c1,-2.3,103,9,i,1,26,102
c1cc(-c2nsc(-c3ccncc3)n2)ccn1,x,97,x,i,0.91,x,x
O=C(CCC(=O)OCC(=O)c1cccc([N+](=O)[O-])c1)Nc1ccccc1Cl,-1.9,92,2,i,0.74,30,68
COC(=O)C1=CN(C(C)C)C=C(C(=O)OC)C1c1cc(Br)c(OC)c(OC)c1,22*,100,0,i,1,-2,130
COc1ccccc1NC(=O)c1ccc(-c2ccc(Br)cc2)o1,0.5,105,-1,i,0.89,50,82
COc1cc(NC(=O)c2cc3c(=O)n(C)c4ccccc4c3n2C)cc(OC)c1OC,-1.3,100,-2,i,1.1,x,x
CN(CC(=O)N1CC(=O)N(CCc2ccccc2)C(=O)C1)S(=O)(=O)c1cccc2nsnc12,-2.3,102,-6,i,0.77,19,89
CCC(C)(C(=O)NC1CCCC1)N(C(=O)CNC(C)=O)c1ccc(C)cc1 (centres undefined),0.1,105,-4,i,1.1,x,x
S=C(NCCc1ccccc1)Nc1cnc2ccccc2c1,x,100,2,i,0.91,x,x
O=C(CC1SCCNC1=O)Nc1cccc(C(F)(F)F)c1 (centres undefined),-2.5,99,0,i,0.72,x,x
CCC(C)(C)n1nnnc1C(c1cc2cc3c(cc2[nH]c1=O)OCO3)N1CCCCC1 (centres undefined),0.5,104,3,x,x,40,101
CCOC(=O)Cn1nc(-c2ccccc2)c2ccccc2c1=O,-1.0,104,0,i,0.84,8,101
Cc1nc(-c2nc(CC(=O)NNC(=O)c3ccc(Cl)cc3)cs2)cs1,x,105,x,i,0.98,x,x
CCOc1ccc(NC(=O)CSc2nnc(C)n2CCCOC)cc1,-1.1,103,5,i,0.98,x,x
CC1CC(C)CN(C(=O)c2ccc(N3CC4CC(C3)c3cccc(=O)n3C4)c([N+](=O)[O-])c2)C1 (centres undefined),-1.3,119,-12,i,0.92,51,109
Cc1nc2c(C(=O)N3CCCCC3)cnn2c(C)c1Cc1ccccc1F,1.2,100,-5,i,0.96,x,x
CCOc1ccc(C(=O)Nc2cc(S(=O)(=O)Nc3ccccc3Cl)ccc2N2CCOCC2)cc1,0.6,99,-2,i,0.95,-16,95
Cc1cc2nn(-c3ccccc3)nc2cc1NC(=O)c1cccs1,-1.5,117,-12,i,0.95,x,x
COc1ccc2c(c1)[nH]c(=O)c1sc3ccccc3c12,-2.5,103,-7,i,0.58,x,x
CCN(CC)S(=O)(=O)c1cccc(C(=O)N[C@H](C(=O)Nc2nc3ccc(F)cc3s2)C(C)C)c1,1.0,102,-11,i,0.82,13,99
CCOC(=O)CSc1[nH]c2cc(OC)ccc2c1[N+](=O)[O-],x,90,-4,i,0.98,x,x
CC(=O)C1=NOC(CNc2ncc(C(F)(F)F)cc2Cl)C1 (centres undefined),x,103,-1,i,1.1,40,62
CCCN(CC1CC1)C(=O)CSc1ncnc2sc(C)c(C)c12,-1.2,99,4,i,0.98,15,71
Cn1cnnc1SCC(=O)c1ccc2c(c1)OCO2,-3.4,81,2,i,0.99,-28,110
CCOC(=O)C1CCN(C(=O)c2ccccc2NC(=O)c2ccc(Cl)cc2)CC1,-0.3,109,1,i,1.1,-44,102
CC1CCCCN1C(=O)Cn1nnc(-c2cccnc2)n1 (centres undefined),-0.7,101,-4,i,1.1,-50,79
Cc1cc(C(F)F)n2nc(C(=O)Nc3sc4c(c3C#N)CCC(C)C4)nc2n1 (centres undefined),-1.2,101,-5,i,1,16,111
CCN(CC)S(=O)(=O)c1ccc(N2CCOCC2)c(NC(=O)COc2ccccc2C#N)c1,x,103,-1,i,0.93,x,x
CCOC(=O)c1cc(C(=O)NCc2ccc(Cl)cc2Cl)nn1C,-1.4,114,-11,i,1,23,72
Cc1cc(C(=O)Nc2cnc3ccccc3c2)ccc1[N+](=O)[O-],x,112,-9,i,1,-25,116
COc1ccc(OC)c(NC(=O)C2CCCCC2)c1,-1.7,102,-12,i,0.9,4,182
COCC1CCN(Cc2cn(C)nc2-c2cccc(Cl)c2)C1 (centres undefined),x,133,-3,i,1,-25,83
O=c1cc(CNc2cc(C(F)(F)F)cc(C(F)(F)F)c2)nc2sccn12,-1.2,44,0,i,0.87,7,32
CCCCN(C(=O)CSc1nncn1-c1ccccc1OC)c1c(N)n(Cc2ccccc2)c(=O)[nH]c1=O,x,104,-3,i,0.99,x,x
c1ccc(Cn2nnnc2C(c2cccnc2)N2CCN(C3CCCCC3)CC2)cc1 (centres undefined),-1.4,122,-11,i,0.87,4,151
# Next results follow.
SMILES,GALR2 ag,RGS16-Gao,PKD1 kinase inh,HSV augment,HSV augment primary fold,INS promoter inh,INS promoter inh cell count
Oc1cccc(C(=S)N2CCN(Cc3ccccc3)CC2)c1,-1.3,82,-5,i,1.1,-184,31
CSC1=NCCN1C(=O)c1ccc(S(=O)(=O)N2CCCC2)cc1,-2.6,105,0,i,0.96,-30,78
O=C(Nc1ccccc1)N(Cc1ccccc1)Cc1ccccc1,-4.2,100,-17,i,1,-97,114
CCc1nc(N[C@H](C(=O)O)C(C)C)c2oc3ccccc3c2n1,x,97,x,i,0.83,x,x
CC1=C(SCCC#N)S/C(=C2\SC(C)=C(SCCC#N)S2)S1,-2.5,98,4,i,1.1,-19,89
CC(=O)N1CCc2cc(S(=O)(=O)CCC(=O)NCc3ccc4c(c3)OCO4)ccc21,-1.0,101,-7,i,0.79,0,90
Cc1cc(=O)[nH]c(SCC(=O)c2ccc(C(C)C)cc2)n1,-1.9,105,0,i,1.1,x,x
